# HSD17B inh – blocks hydroxysteroid 17-beta dehydrogenase activity; recombinant HSD17B10, NADH fluorescence kinetic; many of its hits are not listed in these tables; Potency, µM (top dose mostly 57.1 µM), inactives show at the top dose activity change, negative = inhibition, hits mostly inhibitors; Q99714; 7.6% of 75,000 active; active means well fitted inhibition curve with a large enough effect; inconclusive means small, poorly fitted or top-dose-only effect; inactive means no such curve, though single readings can be large or run the other way;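 further: the protocol describes HADH2 (HSD17B10) and not the HSD17B4 of the title; nearly all actives have a fitted effect of over 70% in size; most hits overshoot -100% by far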
#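 Activity followed as NADH fluorescence increase (ex 360, em 450 nm) every 30 seconds for 4 min, using final 90 uM beta-hydroxybutyryl CoA and 1 mM NAD+. Recombinant His-tagged enzyme, 20 nM, pH 9.0 Tris buffer, 15 min compound preincubation.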
# Starred values were filed as active, the others as inactive; ? = inconclusive; [ ] = remark or other dose. On the % scale 0 is the no-effect control and ±100 the full control effect; potency means the concentration at half of the fitted maximal effect. Some of the compounds tested; rates above refer to the full screens.
1. CCOc1ccc(OCC)c(S(=O)(=O)N2CCCCC2C)c1 (stereo not drawn)
- HSD17B inh = -1%

2. Cc1ccc2c(c1)[nH]c1c(N3CCN(Cc4ccc5c(c4)OCO5)CC3)ncnc12
- HSD17B inh = 7%

3. Cc1cccc2cc(COC(=O)C3CCCCC3)c(=O)[nH]c12
- HSD17B inh = -22%

4. Cc1cccc(Cn2c(CN3CCN(Cc4ccccc4)CC3)nc3c2c(=O)[nH]c(=O)n3C)c1
- HSD17B inh = 3%

5. COc1cc(NC(=O)C2CCCCC2)c(OC)cc1NC(=O)c1ccco1
- HSD17B inh = -14%

6. O=C(O)/C=C\c1ccc(O)c(O)c1
- HSD17B inh = 10µM*

7. COc1cccc(C2(O)CCN(C(=O)c3cccs3)CC2)c1
- HSD17B inh = 4%

8. O=C(Nn1cnnc1)c1cc2c(s1)CCCCC2
- HSD17B inh = -13%

9. CC(=O)c1c(O)cc(O)cc1O
- HSD17B inh = -10%

10. COC(=O)c1ccc(C(=O)OC)c(NC(=O)COC(=O)C23CC4CC(CC(O)(C4)C2)C3)c1
- HSD17B inh = 2%

11. CNc1ncnc2ccc(-c3cccc(NS(C)(=O)=O)c3)cc12
- HSD17B inh = 5%

12. Cc1nn2c(nc1=O)SCC(c1ccccc1)=N2
- HSD17B inh = -12%

13. CCOC(=O)c1[nH]nc(-c2c(O)cc(C)cc2O)c1-c1csc(C)n1
- HSD17B inh = -3%

14. O=c1[nH]c(SCc2cccc([N+](=O)[O-])c2)nc2nc[nH]c12
- HSD17B inh = 9%[11.4 µM]

15. COc1ccc(OC)c(-c2cc(C(=O)Nc3c(C)n(C)n(-c4ccccc4)c3=O)no2)c1
- HSD17B inh = 2%

16. O=C(c1cnc(N2CCN(c3ncccn3)CC2)c2ccccc12)N1CCN(c2ccccn2)CC1
- HSD17B inh = 3%

17. c1ccc(C2COC(c3cccs3)=N2)cc1 (stereo not drawn)
- HSD17B inh = 6%

18. Cn1c(Cn2c(=O)sc3ccccc32)nnc1SCC(=O)NCc1ccc2c(c1)OCO2
- HSD17B inh = 2%

19. COc1ccc(C(=O)N2CCCN(C)CC2)cc1S(=O)(=O)N1CCCc2ccccc21
- HSD17B inh = -1%

20. O=S(=O)(c1ccc(N2CC=C(c3ccccc3)CC2)nc1)N1CCCC1
- HSD17B inh = ?

21. O=C(OCC(=O)N1CCCc2ccccc21)C1CCN(S(=O)(=O)c2cccs2)CC1
- HSD17B inh = -6%

22. O=C(O)c1c(F)c(F)c(F)c(F)c1-c1ccc(Cl)cc1
- HSD17B inh = -6%

23. CN(C)Cc1c(C#N)c2ccccc2n1C
- HSD17B inh = -26%

24. Cn1c(=O)c2c(nc(CN3CCN(C(=O)c4ccco4)CC3)n2Cc2cccc(Cl)c2)n(C)c1=O
- HSD17B inh = 8%

25. Cc1ccc2[nH]c(=O)c(CN(CCN3CCOCC3)C(=O)Nc3ccccc3F)cc2c1
- HSD17B inh = -20%

# Some values from the results shown:
# Value for c1ccc(C2COC(c3cccs3)=N2)cc1 (stereo not drawn) in HSD17B inh: 6%
# Value for O=C(O)c1c(F)c(F)c(F)c(F)c1-c1ccc(Cl)cc1 in HSD17B inh: -6%
# Value for CCOc1ccc(OCC)c(S(=O)(=O)N2CCCCC2C)c1 (stereo not drawn) in HSD17B inh: -1%

# Following part.
26. COc1ccccc1CNc1ncncc1-c1ccccc1C
- HSD17B inh = ?

27. CS(=O)(=O)N1CCC(C(=O)NCCC2=CCCCC2)CC1
- HSD17B inh = 5%

28. COc1ccc(-n2c(=O)c(-c3cn(C)c4ccccc34)nc3cncnc32)cc1
- HSD17B inh = 3%

29. COCCn1c(=O)c(-c2ccc(F)cc2)nc2cnc(Oc3cccc(Cl)c3)nc21
- HSD17B inh = 5µM*

30. O=C(NCc1ccc(F)cc1)c1cc(S(=O)(=O)N2CCOCC2)ccc1F
- HSD17B inh = 13%

31. CCOc1ccccc1-c1nc(-c2ccc(NC(=O)Cc3ccc(OC)cc3)cc2)no1
- HSD17B inh = ?

32. CN(C)c1ccc(/C=c2\sc3n(c2=O)CCCN=3)cc1
- HSD17B inh = -9%

33. O=C(NCc1ccco1)c1ccccc1Nc1ccc(F)cc1
- HSD17B inh = -20%

34. O=C(c1ccncc1)N1CCC2(CCCN(c3ccncc3)C2)CC1
- HSD17B inh = 6%

35. CCN1CCN(Cc2ccc(NC(=O)Nc3ccccc3OC)cc2)CC1
- HSD17B inh = 8%

36. CCN(Cc1cc(Cl)cc(C)c1O)Cc1c(O)ccc2ccccc12
- HSD17B inh = -12%[11.4 µM]

37. O=C(NC1=NCCS1)c1nc(-c2ccccc2)n(-c2ccccc2)n1
- HSD17B inh = -4%

38. CCN(CC)C(=O)Cn1c(=O)n(-c2ccccc2)c(=O)n1CC(=O)N(CC)CC
- HSD17B inh = -2%

39. O=S(=O)(c1cccc(-c2cn3cc(Cl)ccc3n2)c1)N1CCOCC1
- HSD17B inh = 20µM*

40. O/N=C/CCn1c(=S)sc2ccccc21
- HSD17B inh = -10%

41. O=C(CSc1nnc(-c2ccco2)n1CC1CCCO1)NC1CCCC1 (stereo not drawn)
- HSD17B inh = 3%

42. CCOc1cc(C(C#N)N2CCOCC2)ccc1OC (stereo not drawn)
- HSD17B inh = -4%

43. CCOC(=O)c1cnn(-c2ncnc3c2cnn3Cc2ccccc2)c1N
- HSD17B inh = 5%

44. Cc1c(N=C2Nc3cccc4cccc2c34)c(=O)n(-c2ccccc2)n1C
- HSD17B inh = 3%

45. c1ccc(-n2cnnc2SCc2cn3ccsc3n2)cc1
- HSD17B inh = 9%

46. CC(=O)C1=C(C)Nc2ncnn2C1c1ccccc1OCc1ccccc1 (stereo not drawn)
- HSD17B inh = 10%

47. COc1ccc(CCC(=O)NC2=NCCS2)cc1OC
- HSD17B inh = 7%

48. COc1ccc2c(c1)CCCN2C(N)=O
- HSD17B inh = 4%

49. COc1ccccc1S(=O)(=O)Cc1ccc(C(=O)NCCN2CCCCCC2)o1
- HSD17B inh = 16%

50. CCOC(=O)CN(C)Cc1c[nH]c2ccccc12
- HSD17B inh = 6%

# Reprinted at random: 4 compounds from above.
42. CCOc1cc(C(C#N)N2CCOCC2)ccc1OC (stereo not drawn)
- HSD17B inh = -4%

39. O=S(=O)(c1cccc(-c2cn3cc(Cl)ccc3n2)c1)N1CCOCC1
- HSD17B inh = 20µM*

45. c1ccc(-n2cnnc2SCc2cn3ccsc3n2)cc1
- HSD17B inh = 9%

33. O=C(NCc1ccco1)c1ccccc1Nc1ccc(F)cc1
- HSD17B inh = -20%

# The list goes on:
51. CCCOc1nc2c(c(=O)n(C)c(=O)n2C)n1Cc1cccc2ccccc12
- HSD17B inh = 1%

52. COc1cc(OC)c(C2CC(=O)N3CN(C)CSC3=C2C#N)cc1OC (stereo not drawn)
- HSD17B inh = ?

53. O=C(NC1CCCc2ccccc21)C1CCN(c2c3c(nc4ncnn24)CCC3)CC1 (stereo not drawn)
- HSD17B inh = 9%

54. O=C(Nc1ccc(S(=O)(=O)N2CCCCCC2)cc1)c1ccco1
- HSD17B inh = -22%

55. O=C(CSc1nnc(-c2ccc(Cl)cc2)o1)N1CCN(c2ccccc2)CC1
- HSD17B inh = -27%

56. O=C1NC(c2ccccc2)C(C(=O)c2cccs2)C(O)(C(F)(F)F)N1 (stereo not drawn)
- HSD17B inh = 11%

57. COc1cccc(C(=O)N2CCN(Cc3cccc(F)c3)CC2)c1
- HSD17B inh = 1%

58. CN1CCN(Cc2nc3c(c(=O)n(C)c(=O)n3C)n2CCc2ccccc2)CC1
- HSD17B inh = 3%

59. CCOC(=O)CC(=O)Nc1nnc(CC(C)C)s1
- HSD17B inh = 2%

60. CCOCCCNC(=O)c1cn(CC(C)C)c(=O)c2cc(OC)c(OC)cc12
- HSD17B inh = -2%

61. CS(=O)(=O)Nc1cccc(-c2ccc3ncnc(Nc4ccc(F)cc4)c3c2)c1
- HSD17B inh = -4%

62. Cc1nc2ccc(NC(=O)N3CCOCC3)cc2s1
- HSD17B inh = -6%

63. CCOC(=O)CSCc1nc(-c2ccc(Cl)cc2)oc1C
- HSD17B inh = 32µM*

64. COC(=O)C(C)N(C#N)c1nc(C)nc(C)n1 (stereo not drawn)
- HSD17B inh = -4%

65. CN(Cc1ccco1)c1ccnc(-c2cccnc2)n1
- HSD17B inh = -14%

66. Cc1nc(C)n(CC(O)COc2ccc3c(c2)CCC3)n1 (stereo not drawn)
- HSD17B inh = 20%

67. Cc1cc(NC(NC(=O)c2ccco2)(C(F)(F)F)C(F)(F)F)no1
- HSD17B inh = 6%

68. COc1ccc(OC)c2[nH]c(=O)c(CCNC(=O)CC(C)C)cc12
- HSD17B inh = 8%

69. COc1cc(-c2nnc(SCc3ccccc3Cl)o2)cc(OC)c1OC
- HSD17B inh = -11%

70. COC(=O)c1cccc(S(=O)(=O)N2CCC(NC(=O)Nc3cccc(F)c3)CC2)c1
- HSD17B inh = 2%

71. CC(C)(C)N1C(=O)[C@H]2[C@H]3[C@H](O)[C@H](O)C/C(=N/OC[C@@H](O)COCc4ccco4)[C@H]3CC[C@@H]2C1=O
- HSD17B inh = 3%[11.4 µM]

72. O=C(O)[C@H](Cc1ccc(O)c([N+](=O)[O-])c1)N1C(=O)c2ccccc2C1=O
- HSD17B inh = 8%[11.4 µM]

73. CCOc1ccc(-c2noc(CCC(N)=O)n2)cc1OCC
- HSD17B inh = 11%

74. CCCC(=O)Nc1cc(-c2nnc(OC)c3ccccc23)ccc1N1CCOCC1
- HSD17B inh = -6%

75. Cc1ccc(S(=O)(=O)NCC(=O)NC2CCCC2)cc1
- HSD17B inh = 11%

# Six entries out of the list, sorted by molar mass, descending:
71. CC(C)(C)N1C(=O)[C@H]2[C@H]3[C@H](O)[C@H](O)C/C(=N/OC[C@@H](O)COCc4ccco4)[C@H]3CC[C@@H]2C1=O
- HSD17B inh = 3%[11.4 µM]

69. COc1cc(-c2nnc(SCc3ccccc3Cl)o2)cc(OC)c1OC
- HSD17B inh = -11%

54. O=C(Nc1ccc(S(=O)(=O)N2CCCCCC2)cc1)c1ccco1
- HSD17B inh = -22%

63. CCOC(=O)CSCc1nc(-c2ccc(Cl)cc2)oc1C
- HSD17B inh = 32µM*

66. Cc1nc(C)n(CC(O)COc2ccc3c(c2)CCC3)n1 (stereo not drawn)
- HSD17B inh = 20%

59. CCOC(=O)CC(=O)Nc1nnc(CC(C)C)s1
- HSD17B inh = 2%

# (cont.)
76. CCOC(=O)Cc1csc(NC(=O)Cc2cccs2)n1
- HSD17B inh = -16%

77. CC1CCN(C(c2ccc(N(C)C)cc2)c2nnnn2Cc2ccc(F)cc2)CC1 (stereo not drawn)
- HSD17B inh = -3%

78. COC(=O)c1ccc(C(=O)OC)c(NC2=NS(=O)(=O)c3ccccc32)c1
- HSD17B inh = 17%

79. CC(C)(C)c1nc(CN2CCCCC2)cc(CN2CCCCC2)c1O
- HSD17B inh = 1%

80. O=S(=O)(c1cccc2nsnc12)N1CCc2ccccc21
- HSD17B inh = -2%

81. CC(C)OCCCNC(=O)Cn1ncc2c(=O)oc3ccccc3c21
- HSD17B inh = -3%

# Compounds 72 through 78 from above:
72. O=C(O)[C@H](Cc1ccc(O)c([N+](=O)[O-])c1)N1C(=O)c2ccccc2C1=O
- HSD17B inh = 8%[11.4 µM]

73. CCOc1ccc(-c2noc(CCC(N)=O)n2)cc1OCC
- HSD17B inh = 11%

74. CCCC(=O)Nc1cc(-c2nnc(OC)c3ccccc23)ccc1N1CCOCC1
- HSD17B inh = -6%

75. Cc1ccc(S(=O)(=O)NCC(=O)NC2CCCC2)cc1
- HSD17B inh = 11%

76. CCOC(=O)Cc1csc(NC(=O)Cc2cccs2)n1
- HSD17B inh = -16%

77. CC1CCN(C(c2ccc(N(C)C)cc2)c2nnnn2Cc2ccc(F)cc2)CC1 (stereo not drawn)
- HSD17B inh = -3%

78. COC(=O)c1ccc(C(=O)OC)c(NC2=NS(=O)(=O)c3ccccc32)c1
- HSD17B inh = 17%

# Screens deposited in PubChem by National Center for Advancing Translational Sciences (NCATS).
